# Anaer choline gr – growth inhibitors of anaerobic choline-fed gram-negatives, minimal medium, absorbance | Gram-negative bacterium anaerobic choline minimal medium; hits give low values; many inactives read as strong as hits in the columns shown | calls only | 55,000 compounds, 0.2% hits;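 active means growth z-score on choline under -2 at 7 or 20 h with little or no fall on glycerol, limits in tiers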;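 further: stock transfer was 300 nL into about 50 µL; the organism is E. coli; final concentration not given here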
# Anaer choline gr early – recorded beside Anaer choline gr, whose call it bears; z-score; measured here: choline growth z-score, timepoint 1;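 score of optical density at 7 h as mean of two plates; lower means less growth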
# Active calls of the source: *; i = inactive; + = active, no number; & = joins results of further samples.
SMILES | Anaer choline gr | Anaer choline gr early
CC(=O)N1CCC(C(=O)NCc2ccccc2)(N(Cc2ccc(Cl)cc2)C(=O)c2ccc(C)cc2)CC1 | i | -0.35
O=C(Cn1c2ncccc2c(=O)n1-c1ccccc1)Nc1ccccc1 | i | 1.1
CCC(C)NC(=O)N1CCC2(CC1)Nc1cc(OC)ccc1-n1cccc12 (stereo unspecified) | i | 0.4
O=C(CN1N=C(c2ccccc2)c2ccccc2S1(=O)=O)Nc1ccccc1 | i | 0.89
CC1=C(c2ccc(C)c(C)c2)S(=O)(=O)NC1=NCCc1ccc(S(N)(=O)=O)cc1 | i | -0.63
CCOCCCNC(=O)C1c2c(n(C)c3ccccc23)SCC(=O)N1Cc1ccc(F)cc1 (stereo unspecified) | i | -0.64
CCN(CC)C(=O)c1cnn2c3c(cnc12)CCCCCC3 | i | -0.11
O=C(Nc1ccc2c(c1)OCO2)c1cccc(Nc2ncc(-c3ccc(F)cc3)cn2)c1 | i | -0.14
O=C(NCc1cccc(Br)c1)C1CCN(c2nc3ccccc3nc2C(F)(F)F)CC1 | i | 0.22
Cc1ccc2cc3cc(C(=O)N4CCC(C)CC4)sc3nc2c1 | i | -0.17
Cc1nc(Nc2ccc(NC(=O)CC(C)C)cc2)cc(N(C)C)n1 | i | -0.64
NNC(=O)c1ccncc1 | i | 0.88&0.64
COc1ccc(NC(=O)C(C)C)cc1CN1CCn2c(nc3ccccc32)C1 | i | 0.01
Cc1nc(-c2ccc(C)c(S(=O)(=O)N3CCC(C(=O)N4CC=C(c5ccccc5)CC4)CC3)c2)no1 | i | 0.3
Nc1nc(N)c2nc(-c3cccc(O)c3)cnc2n1 | i | 0.39
CCC(C)NC(=O)c1nc(-c2nn(-c3ccccc3)c(=O)n(C)c2=O)no1 (stereo unspecified) | i | -0.09
Cc1ccc(NC(=O)C2=Cc3cc(C)ccc3OC=C2)cc1 | i | 0.66
CCOC(=O)Cc1ccc(NC(=O)N2CC(CC)Oc3ccccc32)cc1 (stereo unspecified) | i | 0.21
Cc1ccc(-n2nnc(-c3nc(-c4ccccc4)no3)c2C)cc1 | i | 2.6
Cc1ccc(C2C3=C(CC(C)(C)CC3=O)Nc3ccccc3N2CC(=O)N2CCOCC2)cc1 (stereo unspecified) | i | -0.18
Cc1ccc(S(=O)(=O)NCCn2c(-c3ccccc3)nc3cccnc32)c(C)c1 | i | -0.82
COc1cc(=O)n(-c2ccc(C)cc2)nc1C(=O)Nc1ccc(-c2nc3ccc(C)cc3s2)cc1 | i | 0.62
CCOc1ccc(CC(=O)Nc2ccc(Cl)c3cccnc23)cc1OCC | i | 1.3
Cc1ccc(CSc2nc(=O)n(Cc3ccccc3)c3c2CCC3)cc1 | i | 0.86
Cc1nc(C)c(-c2nc(-c3ccc4c(c3)nnn4CCC(=O)N3CCCC3)no2)s1 | i | -2.1

# Following part:
SMILES | Anaer choline gr | Anaer choline gr early
Cc1[nH]c(C(=O)N2CCC(CC(=O)N3CCCCC3)CC2)c(C)c1C(=O)OC(C)C | i | -0.4
CCOC(=O)c1sc(NC(=O)c2nc(S(=O)(=O)CC)ncc2Cl)c(C(=O)OCC)c1C | i | -1.3
COC(=O)c1ccccc1NC(=O)c1ccc2c(c1)CCCN2S(=O)(=O)c1ccc(Cl)cc1 | i | 0.04
CCCC[C@@H](CC)COC(=O)C(C#N)=C(c1ccccc1)c1ccccc1 | i | 0.63
OCc1ccc(OC2OC(CO)C(O)C(O)C2O)cc1 (stereo unspecified) | i | 0.45
O=S(=O)(c1ccc(F)cc1)N1CCOc2ccc(COCc3cccc(F)c3)cc2C1 | i | 1.4
COc1cccc(C2=NN(S(C)(=O)=O)C(c3cn(-c4ccccc4)nc3-c3ccccc3)C2)c1 (stereo unspecified) | i | 0.59
CC1(C)CN(CC(=O)N2CCCC2)c2ccc(S(=O)(=O)NC3CC3)cc21 | i | 1.7
CNC(=O)C1CCCN(Cc2cccs2)C1 (stereo unspecified) | i | -0.76
COc1ccc(NS(=O)(=O)c2cc(-c3nc(-c4ccc(Cl)cc4)no3)cs2)cc1OC | i | 0.06
Cc1ccc(C)c(NC(=O)c2sc(C)nc2C)c1 | i | 0.83
Cc1cccc(-c2cncc(C(=O)Nc3ccc(C)cc3C)c2)c1 | i | 1
Cc1cccc(N(C)C(=O)c2coc(=O)c3ccccc23)c1 | i | -0.37
Cc1nnc(-c2csc(S(=O)(=O)N3CCC(C)CC3)c2)o1 | i | 0.43
CCC(=O)Nc1ccc2c(c1)CCC(=O)N2 | i | -1.2
O=S(=O)(c1cn(Cc2noc(-c3cc4cc(Cl)ccc4[nH]3)n2)cn1)N1CCCCC1 | i | 1.3
COc1ccc2cc3c(nc2c1)N(S(=O)(=O)c1ccc(OC2CCCC2)cc1)CC3 | i | -1.1
Cc1sc(-c2ccno2)cc1S(=O)(=O)N1CCC(C)CC1 | i | -0.15
Cc1ccc(-c2ccc(=O)n(-c3c(C)noc3C)n2)cc1S(=O)(=O)NC1CC1 | i | 0.83
NC(=NCCCCCCN=C(N)N=C(N)Nc1ccc(Cl)cc1)N=C(N)Nc1ccc(Cl)cc1 | i | -3.8
COc1ccc(-c2cc3n(n2)CCC(=O)N3CC(=O)N2CCOCC2)cc1 | i | -1.1
O=C(CN1C(=O)CC(c2ccccc2)=Nc2ccccc21)Nc1ccccc1 | i | 0.93
CCCCn1nnc(NCc2ccc(-c3cc(Cl)ccc3Cl)o2)n1 | i | 0.33
COc1ccc2c3c1OC1CC(O)C=CC31CCN(C)C2 (stereo unspecified) | i | 0.88
COc1cccc(N(C)S(=O)(=O)c2ccsc2C(=O)n2nc(C)cc2C)c1 | i | -0.5

# Structures listed so far that contain a Cl atom, in the order listed:
SMILES | Anaer choline gr | Anaer choline gr early
CC(=O)N1CCC(C(=O)NCc2ccccc2)(N(Cc2ccc(Cl)cc2)C(=O)c2ccc(C)cc2)CC1 | i | -0.35
CCOc1ccc(CC(=O)Nc2ccc(Cl)c3cccnc23)cc1OCC | i | 1.3
CCOC(=O)c1sc(NC(=O)c2nc(S(=O)(=O)CC)ncc2Cl)c(C(=O)OCC)c1C | i | -1.3
COC(=O)c1ccccc1NC(=O)c1ccc2c(c1)CCCN2S(=O)(=O)c1ccc(Cl)cc1 | i | 0.04
COc1ccc(NS(=O)(=O)c2cc(-c3nc(-c4ccc(Cl)cc4)no3)cs2)cc1OC | i | 0.06
O=S(=O)(c1cn(Cc2noc(-c3cc4cc(Cl)ccc4[nH]3)n2)cn1)N1CCCCC1 | i | 1.3
NC(=NCCCCCCN=C(N)N=C(N)Nc1ccc(Cl)cc1)N=C(N)Nc1ccc(Cl)cc1 | i | -3.8
CCCCn1nnc(NCc2ccc(-c3cc(Cl)ccc3Cl)o2)n1 | i | 0.33

# Additional structures.
SMILES | Anaer choline gr | Anaer choline gr early
O=C(Nc1cccc(-c2nc3cccnc3s2)c1)C1c2ccccc2Oc2ccccc21 | i | -0.26
O=C(NCC1CCCO1)C1(c2ccc(NS(=O)(=O)c3ccc(C4CCCCC4)cc3)cc2)CC1 (stereo unspecified) | i | 1.1
CCNC(=O)C1CC(=O)N(CCc2c[nH]c3ccc(Cl)cc23)C1 (stereo unspecified) | i | -0.7
COCCNC(=O)CSc1nc(-c2ccc3c(c2)OCO3)nc2cc(=O)[nH]n12 | i | -1.6
CC1CSc2ccc(S(=O)(=O)N3CCCC3)cc2N(CC(=O)N(C)Cc2ccccc2)C1=O (stereo unspecified) | i | 0.78
CCOc1ccc(-c2nn3c(Cc4ccc(OC)cc4)nnc3s2)cc1 | i | 0.53
COc1ccc2[nH]c3c(c(=O)c2c1)CN(CC(=O)NCc1ccc2c(c1)OCO2)CC3 | i | 0.33
Cc1ccc(CN2CC(=O)N(c3ccc(Br)cc3)[C@@H]3CS(=O)(=O)C[C@@H]32)cc1 | i | -0.94
CCc1c(C)sc2c1CCN(C(=O)Nc1ccc(OC)c(OC)c1)C2c1ccccc1 (stereo unspecified) | i | -0.8
COc1ccc(CNC(=O)c2cccc(C3CCCN(C(=O)NC(C)C)C3)c2)cc1 (stereo unspecified) | i | -0.82
CCn1c(=O)c2c(C(=O)N3CCN(C)CC3)cc(=O)n(CC)c2n(C)c1=O | i | 0.39
O=C(Cn1c(=O)sc2cc(S(=O)(=O)N3CCCC3)ccc21)N1CCCC1 | i | -0.03
C#CCn1cnc2c(oc3ccccc32)c1=O | i | -0.93
O=C(CNS(=O)(=O)c1cc(-c2noc(C3CCC3)n2)cs1)Nc1ccc(F)cc1 | i | 0.66
O=C(NCC1CCCO1)c1ccccc1NC(=O)c1nsc2ccccc12 (stereo unspecified) | i | 0.81
Cc1nc(-c2ccc(-c3noc(-c4ccc5c(c4)OCO5)n3)cc2)cs1 | i | 1.5
Cc1nn(-c2ccccc2)c2sc(C(=O)NCCN(C)C3CCCCC3)cc12 | i | -3.3
Cc1ccc(Cc2cnc(NC(=O)C3=Cc4cc(C)ccc4OC=C3)s2)cc1 | i | -0.3
COCCN1C(=O)c2c(NC(C)=O)c3cc(OC)ccc3n2CC1(C)C(=O)NC1CCCC1 (stereo unspecified) | i | -0.54
O=S(=O)(NC1CCCCC1)c1ccc(-c2cc(C(F)(F)F)on2)o1 | i | -1.3
CCn1c(C)ccc(-c2noc(CCC(=O)Nc3ccc(Cl)cc3)n2)c1=O | i | 0.09
CCOc1ccc(CN2CCCC2c2ccc(Cl)cc2)cc1 (stereo unspecified) | i | 0
COc1cc(NC(=NCc2ccncc2)NC(=O)c2cccc(N(C)C)c2)cc(OC)c1 | i | -0.55
CCOc1cccc(CN2C(=O)c3ccccc3CC2(C)C(=O)NCc2ccccc2OC)c1 (stereo unspecified) | i | -0.28
Cc1ccc2[nH]cc(CCNC(=O)c3ccc(NC(=O)c4nnc(COc5ccccc5)s4)cc3)c2c1 | i | 1.3

# 2 neighbouring entries already listed, quoted:
SMILES | Anaer choline gr | Anaer choline gr early
CCOc1cccc(CN2C(=O)c3ccccc3CC2(C)C(=O)NCc2ccccc2OC)c1 (stereo unspecified) | i | -0.28
Cc1ccc2[nH]cc(CCNC(=O)c3ccc(NC(=O)c4nnc(COc5ccccc5)s4)cc3)c2c1 | i | 1.3

# (list continues)
SMILES | Anaer choline gr | Anaer choline gr early
CN(C)c1ccc(-c2nnc3sc(-c4ccc5ccccc5n4)nn23)cc1 | i | -0.56
Cc1ccc(NC(=O)N2CCC(n3cnc4cccnc43)CC2)cc1Cl | i | -0.08
Cc1ccc(C(=O)Nc2cnc3oc(-c4ccc(C(C)C)cc4)nn3c2=O)cc1 | i | 0.7
CCC(=O)Nc1ccc(-c2cc(C(=O)Nc3ccc(OC)c(OC)c3)c3ccccc3n2)cc1 | i | -0.77
Cc1ccc(CNS(=O)(=O)c2ccc(-c3cnc(C)o3)s2)o1 | i | 0.1
CCCCNS(=O)(=O)c1ccc(NC(=O)c2cc(-c3ccccc3)nc3ccccc23)cc1 | i | 0.62
COc1cc2nc(N3CCN(C(=O)C4CCCO4)CC3)nc(N)c2cc1OC (stereo unspecified) | i | -0.4&0.61&0.27&-1.6
N#Cc1ccc(CN2CCC(C(O)c3ccccc3)CC2)cc1 (stereo unspecified) | i | -0.62
Cc1ccc(S(=O)(=O)Cc2nc(-c3ccccc3)no2)cc1 | i | -0.83
CN([C@@H](Cc1ccc(OS(=O)(=O)c2cccc3cnccc23)cc1)C(=O)N1CCN(c2ccccc2)CC1)S(=O)(=O)c1cccc2cnccc12 | i | -0.11
Cc1ccccc1-c1nc2scc(CCNS(=O)(=O)c3cccc(Cl)c3)n2n1 | i | 1.3
COc1ccc(NC(=O)c2ccc(CN3CCc4ccccc4C3)cc2)cc1OC | i | 1.2
CC/C=C\C/C=C\C/C=C\CCCCCCCCCC(=O)O | + | -3.2*
C=C(C)CN1CCN(c2cc(C)nc3c(-c4ccc(F)cc4)c(C(F)(F)F)nn23)CC1 | i | -0.37
O=C(Nc1ccc2c(c1)OCCO2)N1CCCN(c2nc3ccccc3n3cccc23)CC1 | i | -0.26
CCCC[P+](CCCC)(CCCC)Cc1ccc(NC(=O)[C@@H](Cc2ccc3ccccc3c2)NC(=NC2CCCCC2)NC2CCCCC2)cc1 | i | -4.2
O=C(c1cn(-c2ccccc2)nc1-c1ccc(Cl)cc1)N1CCc2ccccc2C1 | i | 0.76
COc1ccc(OC)c2c1cc1n2CC(C)(C(=O)NC2CCCC2)N(CCC(C)C)C1=O (stereo unspecified) | i | -0.14
CCn1c(=O)c2sccc2n2c(CCCC(=O)NCCc3ccc(S(N)(=O)=O)cc3)nnc12 | i | -0.1
COC(=O)c1ccc(Cn2c(=O)c3cccn3c3cccnc32)cc1 | i | 1.6
Cc1nc(-c2ccc(N3CCN(C(=O)Nc4ccccc4)CC3)cc2)no1 | i | -0.04
C=CCn1c(NCc2ccccc2Cl)nc2ccccc21 | i | 0.4
O=c1c2cc(-c3ccc4c(c3)OCO4)nn2ccn1Cc1nc(-c2ccc(F)cc2)no1 | i | 0.37
Cc1ccc(NC(=O)NC2CCN(c3cc(C)nc4ncnn34)CC2)cc1 | i | 0.1
CCOc1ccc(CN2CCCC2c2c(C)noc2C)cc1OCC (stereo unspecified) | i | 0.25

# The list goes on.
SMILES | Anaer choline gr | Anaer choline gr early
O=C(Nc1cccc(Cl)c1)C1CCC(=O)N1S(=O)(=O)c1ccc(F)cc1 (stereo unspecified) | i | -0.47
COc1ccc(NC(=O)N2Cc3c(sc4c3CCN(C)C4)-n3cccc3C2C)cc1OC (stereo unspecified) | i | 0.37
CC(C)C(=O)NCC(c1cccnc1)N1CCN(c2ccccc2)CC1 (stereo unspecified) | i | -0.04
CC(C)CNC(=O)Nc1cc2c(cc1N1CCOCC1)n(C)c(=O)n2C | i | 0.73
O=C(NC1CCCC1)c1nc(-c2ccc(S(=O)(=O)N3CCCCC3)cc2)no1 | i | -1.1
Cn1nc(C(=O)NCc2ccccc2)c2c1CCN(C(=O)C1CCC1)C2 | i | -1.4
COc1cccc(-c2noc(CN3C(=O)COc4cc(C(C)(C)C)ccc43)n2)c1 | i | 1.6
CCOc1ccc(NC(=O)Nc2ccc3c(c2)N(C)C(=O)CS3)cc1 | i | 1.5
CCn1nc(C)c(CNC(=O)NCC2CCCO2)c1C (stereo unspecified) | i | 0.77

# High-throughput results from PubChem.

# Not all compounds are listed. The share of hits here may be higher or lower than overall.
